# Polio RdRp inh: inhibitors of poliovirus RNA polymerase binding and polymerization | % elongation, % (compound at 16.7 µg/mL) | P03300 | poliovirus polymerase elongation, fluorescence polarization; stronger effect = lower value | actives 0.66% (n = 150,000); in the data active = % elongation below about 90%; also: some results filed as inactive read as strong as hits
# Target sequence (P03300 1749-2209 limits assumed): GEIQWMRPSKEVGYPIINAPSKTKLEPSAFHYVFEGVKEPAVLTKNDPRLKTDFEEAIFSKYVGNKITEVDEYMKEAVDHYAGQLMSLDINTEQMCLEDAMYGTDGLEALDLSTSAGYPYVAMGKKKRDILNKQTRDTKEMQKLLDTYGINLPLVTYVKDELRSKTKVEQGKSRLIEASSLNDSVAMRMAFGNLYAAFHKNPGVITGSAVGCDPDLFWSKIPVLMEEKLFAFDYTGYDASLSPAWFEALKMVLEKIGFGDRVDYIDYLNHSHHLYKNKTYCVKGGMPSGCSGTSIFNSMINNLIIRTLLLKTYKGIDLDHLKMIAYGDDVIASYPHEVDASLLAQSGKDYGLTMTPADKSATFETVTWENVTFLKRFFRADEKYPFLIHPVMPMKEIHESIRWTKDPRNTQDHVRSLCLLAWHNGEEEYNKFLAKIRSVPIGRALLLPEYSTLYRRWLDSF
# Polio RdRp inh intensity: recorded beside Polio RdRp inh, whose call it bears; % elongation; measured here: total intensity read-out; formula for this scale not given here;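 total fluorescence in place of polarization; lower means less elongation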
# Numbers without * were called inactive.
SMILES,Polio RdRp inh,Polio RdRp inh intensity
CCc1ccc(C(=O)c2cn(CC(=O)Nc3cc(C)ccc3C)c3nc(C)ccc3c2=O)cc1,106,106
Cc1cc(F)ccc1S(=O)(=O)NCC(c1ccco1)S(=O)(=O)c1cccs1 (stereo not given),111,104
COc1ccc(CNC(=O)c2ccc3c(O)c(S(=O)(=O)c4ccccc4)c(=O)[nH]c3c2)cc1,104,108
Cc1ccc(C)c(Cn2c(SCC(=O)NCc3ccccc3)nc3ccccc32)c1,102,106
COc1ccc(CNC(=O)Cn2nc3c(cc2=O)CCCC3)cc1,114,119
COc1ccc(Br)cc1CNC(=O)Cn1c(=O)c2cccn2c2ccc(F)cc21,101,102
COc1ccc(C2C(=O)N(C3CCCCCC3)CC(=O)N2Cc2ccccc2)cc1 (stereo not given),110,107
Cc1cn2c(=O)cc(COC(=O)c3ccc(NC(=O)COc4ccccc4C)cc3)nc2s1,107,111
COc1ccc(OC)c(NC(=O)N2CCC(N3CCN(Cc4ccc(F)cc4)C(=O)C3=O)CC2)c1,102,106
CCCCCN1C(C(=O)c2ccccc2)=C(NC(=O)c2ccc(OC)c(OC)c2)c2ccccc2S1(=O)=O,108,108
CC(=O)N1c2ccc(S(=O)(=O)N3CCCCCC3)cc2CC1C(=O)NCc1ccccc1F (stereo not given),101,95
Cc1cccc(-c2nc(S(=O)(=O)c3ccc(Cl)cc3)c(N3CCCCCC3)o2)c1,105,110
O=C(Cc1ccc(F)cc1)NCc1ccc2c(c1)CCN2C(=O)c1ccc(F)cc1,110,109
CCOc1ccc(-c2nc(SCC(=O)Nc3ccc(C)c(C)c3)n3[nH]c(=O)cc3n2)cc1,105,100
Cc1ccc(NC(=O)Cn2c(=O)n(CCC(=O)NCc3ccc4c(c3)OCO4)c(=O)c3sccc32)c(C)c1,109,111

# The closing 5 entries of the section above lead into the next.
SMILES,Polio RdRp inh,Polio RdRp inh intensity
CC(=O)N1c2ccc(S(=O)(=O)N3CCCCCC3)cc2CC1C(=O)NCc1ccccc1F (stereo not given),101,95
Cc1cccc(-c2nc(S(=O)(=O)c3ccc(Cl)cc3)c(N3CCCCCC3)o2)c1,105,110
O=C(Cc1ccc(F)cc1)NCc1ccc2c(c1)CCN2C(=O)c1ccc(F)cc1,110,109
CCOc1ccc(-c2nc(SCC(=O)Nc3ccc(C)c(C)c3)n3[nH]c(=O)cc3n2)cc1,105,100
Cc1ccc(NC(=O)Cn2c(=O)n(CCC(=O)NCc3ccc4c(c3)OCO4)c(=O)c3sccc32)c(C)c1,109,111
CCOC(=O)c1c(C)[nH]c(C)c1S(=O)(=O)NCC(=O)N1CCN(c2ccccc2F)CC1,106,111
COc1cccc(N2CCN(C(=O)c3cccn3-c3nnc(N4CCCC4)s3)CC2)c1,99,103
CCOC(=O)C1CCN(C(=O)C2CCN(C3=NS(=O)(=O)C(c4ccc(C)c(C)c4)=C3C)CC2)CC1,116,112
COc1ccc(CNC(=O)Cn2nnc(-c3ccccc3F)n2)cc1,104,105
COc1ccccc1C(=O)Nc1nc2nc(C)cc(=O)n2[nH]1,105,104
Cc1cc(NS(=O)(=O)c2ccc(NC(=O)COc3ccccc3Br)cc2)no1,106,108
CN(C)c1oc(-c2ccc(COc3ccccc3)o2)nc1C#N,103,107
CCOc1ccccc1C(=O)Nc1c(NC)c2ccccc2oc1=O,108,112
CCN(CC)CCCNC(=O)Cn1ncc2c3ccccc3n(Cc3ccccc3)c2c1=O,107,107
COCCNC(=O)CCC(=O)N1Cc2cccc(OC)c2Oc2ncccc21,110,99
Cc1ccc(-n2nc(CO)c(C(=O)NC(C)CCCc3ccccc3)n2)cc1 (stereo not given),97,106
Cc1ccc(C)c(N2CCN(C(=O)c3ccc(Nc4nc5ccccc5n5nnnc45)cc3)CC2)c1,109,113
Cc1coc2c(C)c3oc(=O)c(CC(=O)NCCc4ccc(Cl)cc4)c(C)c3cc12,114,111
COc1ccc(NC(=O)c2ccc(NC(=O)N3CCSc4ncccc43)cc2)cc1,107,94
Cc1cccc(NC(=O)c2oc3ccc(S(=O)(=O)N4CCC5(CC4)OCCO5)cc3c2C)c1C,103,99
C#CCn1c(C2CC(=O)N(c3ccc(OC)cc3)C2)nc2ccccc21 (stereo not given),100,99
COc1ccc(Cl)cc1NC(=O)CSc1nnc(C)n2c1cc1occc12,109,105
CCOc1ccc(-c2cn3c(n2)sc2cc(C(=O)NCCCN4CCCCC4)ccc23)cc1,92,82
O=C(Nc1ccc(S(=O)(=O)Nc2ncccn2)cc1)c1ccccc1Cl,105,109
COc1ccccc1CNC(=O)c1cccc(N2CCCS2(=O)=O)c1,109,105
COC(=O)c1c(NC(=O)c2cc(=O)c3cc(C)cc(C)c3o2)sc2c1CCC2,110,111
CC(C)N(Cc1ccccc1)C(=O)c1nc(-c2ccc(Cl)cc2)n2c1CCCCC2,102,97
Cc1ccc(-c2nnc(Nc3ccc(Br)cc3)c3ccccc23)cc1S(=O)(=O)N1CCN(C)CC1,108,107
CCCSC1=NC2(CCN(C(=O)NC3CCCCC3)CC2)N=C1c1ccc(Cl)cc1,107,103
CCOc1ccc(NC(=O)CCn2cccn2)cc1,101,106
COc1ccc(-c2ccc(-c3noc(-c4cc(OC)cc(OC)c4)n3)c(OC)n2)cc1,110,118
C=CCc1c(C)nc2nc(SCC(=O)Nc3ccc(C)c(C)c3)nn2c1C,113,112
CCOC(=O)c1c(C)[nH]c(C)c1S(=O)(=O)N(C)CC(=O)Nc1ccc(C)cc1C,109,117
Cc1ccc(N(C)C(CNS(=O)(=O)c2ccccc2)c2ccccc2)cc1 (stereo not given),112,114
COc1cc2[nH]c(=O)n(CCCCCC(=O)N3CCN(c4cccc(C(F)(F)F)c4)CC3)c(=O)c2cc1OC,102,105

# Shown with bars between the fields: entries from further up.
compound | Polio RdRp inh | Polio RdRp inh intensity
COC(=O)c1c(NC(=O)c2cc(=O)c3cc(C)cc(C)c3o2)sc2c1CCC2 | 110 | 111
CC(C)N(Cc1ccccc1)C(=O)c1nc(-c2ccc(Cl)cc2)n2c1CCCCC2 | 102 | 97

# Remaining list, next part
SMILES,Polio RdRp inh,Polio RdRp inh intensity
CC(C)Cn1c(-c2ccccc2Cl)nc2ccccc21,110,112
COc1ccc(CCNC(=O)CCCn2c(=O)c3ccccc3n(Cc3c(C)cc(C)cc3C)c2=O)cc1OC,103,107
CCOC(=O)c1cc2c(=O)n3ccccc3nc2n(Cc2ccco2)c1=NC(=O)c1cccc(F)c1,103,105
CCOc1ccc(CNC(=O)c2cc3c(=O)oc4ccc(C)cc4c3s2)cc1,108,108
CCn1c(=O)cc(OCC(=O)N2CCN(c3ccc(C)cc3)C(C)C2)c2ccccc21 (stereo not given),105,106
COc1cc2ncc3c(-c4ccccc4)nn(-c4ccc(C)cc4)c3c2cc1OC,108,116
CCOC(=O)c1sc2cccc(F)c2c1S(=O)(=O)Nc1ccccc1F,110,101
Cc1cccc(C)c1OCCSc1nc2ccccc2n1CC(=O)O,101,109
O=C(Nc1ccccc1F)c1nc(SCc2ccc(F)cc2)ncc1Cl,111,112
CCc1ccccc1NC(=O)Cn1nnc(C(=O)NCc2ccco2)c1N,112,114
CCCNc1nc2c(c(=O)n(C)c(=O)n2C)n1CC(O)COc1ccccc1 (stereo not given),95,81
CC1CCN(c2nc3c(S(=O)(=O)c4ccccc4)nnn3c3ccsc23)CC1,100,97
Cc1ccccc1NC(=O)Cn1c(SCC(=O)Nc2ccc(F)cc2)nc2ccccc21,107,109
Cc1ccc(C2N3CC4(C)CN2CC(c2ccccc2)(C3)C4=O)cc1 (stereo not given),109,112
CCc1ccc(Nc2nnc(-c3cc4cc(OC)ccc4oc3=O)s2)cc1,110,104

# The list goes on (2 carried over from the part before).
SMILES,Polio RdRp inh,Polio RdRp inh intensity
Cc1ccc(C2N3CC4(C)CN2CC(c2ccccc2)(C3)C4=O)cc1 (stereo not given),109,112
CCc1ccc(Nc2nnc(-c3cc4cc(OC)ccc4oc3=O)s2)cc1,110,104
CN(C)C1(CNC(=O)COc2cccc(Cl)c2)CCCCC1,105,109
Cc1ccccc1C(=O)Nc1nnc(S(=O)(=O)N2CCc3ccccc32)s1,109,103
COC(=O)c1sccc1S(=O)(=O)N(CC(=O)Nc1cc(C)ccc1C)c1ccc(C)c(C)c1,105,104
CCN1CCN(c2nc3c(S(=O)(=O)c4ccc(Br)cc4)nnn3c3ccsc23)CC1,111,96
Cc1csc2nc(-c3ccc(NS(=O)(=O)c4cccc(F)c4)cc3)cn12,106,111
Cc1ccc(-n2ncc3c(N4CCN(C)CC4)ncnc32)cc1,103,108
Cc1ccn2c(Nc3c(C)cccc3C)c(-c3ccsc3)nc2c1,105,110
O=C(NC1CC(=O)N(c2ccc(F)cc2)C1)c1ccc(S(=O)(=O)N2CCCCC2)cc1 (stereo not given),108,110
CCCCN1CC(c2nc3ccccc3n2CCCCOc2cc(C)cc(C)c2)CC1=O (stereo not given),108,109
COc1ccc(OC)c(NC(=O)CN(C)S(=O)(=O)c2ccc(C(=O)N3CCOCC3)s2)c1,103,111
Brc1cccc(-c2nnn3c2nc(NCc2ccc4c(c2)OCO4)c2ccccc23)c1,101,108
CCOc1ccc(-c2nn(-c3ccc(F)cc3)c3c2cnc2ccc(F)cc23)cc1,109,109
Cn1c(=O)sc2cc(NS(=O)(=O)c3ccc(C(C)(C)C)cc3)ccc21,108,102
Cc1ccc(CCNC(=O)c2ccc3c(c2)N(Cc2cccc(F)c2)C(=O)c2ccccc2S3)cc1,111,110
O=C(NCC1CCN(Cc2cccc(Cl)c2)CC1)Nc1cc(Cl)ccc1Cl,107,106
COc1ccccc1NC(=O)CSCc1cc(=O)c2cccc(Cl)c2[nH]1,108,101
CCOc1ccc(-n2nc(CO)c(C(=O)NCCCc3ccccc3)n2)cc1,103,99
Cc1ccc2cc3cc(C(=O)N4CCN(c5ccccc5)CC4)sc3nc2c1,114,116
CSc1ncc(Cl)c(C(=O)Nc2ccc(NC(C)=O)cc2)n1,118,117
COc1ccc(C(c2c(O)cc(C)n(Cc3ccco3)c2=O)N2CCCCC2)cc1OC (stereo not given),107,110
Cc1ccc(OCC(=O)Nc2ccc(OCc3cc(=O)n4ccsc4n3)cc2)cc1C,114,109
CCOc1ccc(C2CC(=O)Nc3c2c(=O)[nH]c2ncnn32)cc1 (stereo not given),105,110
COc1cc(Cl)c(NC(=O)c2cc(S(=O)(=O)N3CCOCC3)cn2C)c(OC)c1,98,107
N#Cc1ccc(C(=O)Nc2ccc(Cl)c(-c3nc4cc(Cl)ccc4o3)c2)c(F)c1,105,107
O=C(COc1ccc(F)cc1)Nc1ccccc1C(=O)OCc1cc(=O)n2nc(C3CC3)sc2n1,111,113
Cc1c(Cl)cccc1NC(=O)c1ccc2c(c1)CCN2S(=O)(=O)c1ccccc1,110,116
COC(=O)c1c(SC)nc2ccccc2c1OCc1ccc(Br)cc1,107,113
CCC1CN(C(=O)Nc2ccccc2C(F)(F)F)c2ccccc2S1 (stereo not given),117,119
Cc1ccc(NC(=O)/C=C/c2ccccc2Cl)cc1Cl,105,110
Cc1[nH]c2ccc(C(=O)Nc3ccc(F)cc3)cc2c1C,102,105
COc1ccccc1C(=O)NC1(C(F)(F)F)C(=O)NC(C)=C1C#N (stereo not given),101,104
Cc1cccc(CC(=O)N2CC(=O)Nc3ccc(Br)cc3C2c2ccc(F)cc2)c1 (stereo not given),103,105
O=C(COc1ccccc1)NCc1ccc2c(c1)CCN2C(=O)c1ccc(Cl)cc1,100,106
Cc1nc2ccn(Cc3ccco3)c(=O)c2cc1C(=O)Nc1ccc(F)cc1,104,102
CCc1cc(=O)oc2c(C)c3c(cc12)CN(CCc1ccccc1OC)CO3,104,115
COc1cc(Cl)c(C)cc1Nc1nnc(-n2nc(C)cc2C)c2ccccc12,109,102
O=c1n(Cc2ccccc2)nc2n1-c1cc(Cl)ccc1OC2,107,110
CCCOC(=O)CSc1ncnc2sc3c(c12)CCC(C)C3 (stereo not given),106,110
CCN(C(=O)c1cc2c(s1)-c1c(C)cccc1OC2)c1ccccc1F,107,110
COc1cc2c(cc1OC)C(c1ccc(F)cc1)N(c1ccc(F)cc1)C(=O)C2 (stereo not given),110,101
COc1cccc(-n2c(=O)c3sc4ccccc4c3n(CC(=O)NC3CCCCC3)c2=O)c1,110,106
O=C(CSc1nnc(-c2ccncc2)n1-c1ccccc1)Nc1ccc(Cl)c(Cl)c1,106,116
CCc1ccccc1NC(=O)c1ccc(F)c(S(=O)(=O)N2CCN(c3ccccc3OC)CC2)c1,102,106
Cc1ccc(CNC(=O)c2cc(Sc3ccc(F)cc3F)nc3ccccc23)cc1,112,108
Cc1ccc(C(=O)CSc2nc3cc(C(=O)NC4CCCC4)ccc3c(=O)n2CC2CCCO2)c(C)c1 (stereo not given),113,110
Cc1cc(Cl)ccc1OCC(=O)N(Cc1ccco1)Cc1ccco1,109,105
Cc1cc(C)cc(OCc2cc(=O)n3cc(C)sc3n2)c1,105,108
N#C/C(=C\c1ccccc1)C(=O)Nc1sc2c(c1C(N)=O)CCC2,106,107
Cn1c2ccccc2c2cnn(CC(=O)Nc3ccccc3F)c(=O)c21,105,105
COc1ccccc1CNC(=O)CCC1N=C2c3ccccc3N=C(SCc3ccccc3Cl)N2C1=O (stereo not given),111,108
CCOc1ccc(CCNC(=O)c2ccc(C)c(-n3c(C)nc4cccnc43)c2)cc1OCC,109,114
CCCOc1ccc(CNC(=O)C2CCN(C(=O)c3sccc3-n3cccc3)CC2)cc1,111,116
COc1ccc(C)cc1NC(=O)CN1C(=O)COc2ccc(S(=O)(=O)N3CCCCCC3)cc21,118,121
CCOC(=O)CSc1nc2ccc(NC(=O)COc3ccc(F)cc3)cc2s1,112,100
Cc1ccccc1NC(=O)CCOc1ccccc1,107,112
COc1ccc(-c2c(C)c3cc(OC(=O)N4CCOCC4)ccc3oc2=O)cc1,111,113
CCOc1ccc(-c2cc(NC(=O)c3ccccc3)c(C(=O)OC)s2)cc1,105,110
COc1ccccc1NC(=O)NCc1cccn1Cc1ccccc1,100,102
Cc1cc(=O)n(Cc2cccc(Br)c2)c2c1c(C)nn2-c1ccccc1,107,110

# Arranged by length of the SMILES (rising): some entries from above
SMILES,Polio RdRp inh,Polio RdRp inh intensity
Cc1cc(C)cc(OCc2cc(=O)n3cc(C)sc3n2)c1,105,108
Cn1c2ccccc2c2cnn(CC(=O)Nc3ccccc3F)c(=O)c21,105,105
N#C/C(=C\c1ccccc1)C(=O)Nc1sc2c(c1C(N)=O)CCC2,106,107

# Screens (PubChem BioAssay)

# Some of the compounds tested (hit frequency here may not be typical).
